Bioassay records (PubChem BioAssay)
hNpr1 antagonist = antagonists of human natriuretic peptide receptor Npr1; AID 1347048; 76,000 tested, 1.6% active; HEK293 hNpr1 GloSensor cGMP, ANP-stimulated luminescence; Potency, µM (titrated, usually from 46.3 µM), inactives show at the highest dose activity change, negative = inhibition, most hits filed as inhibitors; active = well fitted inhibition curve with a large enough effect; inconclusive = small, poorly fitted or top-dose-only effect; inactive = no such curve, though single readings can be large or run the other way;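 also: nearly all actives have a fitted effect of over 60% in size; nearly all hits also lower the signal before the agonist is added; a reference antagonist and vehicle were the controls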
Target sequence (P16066 whole entry, looked up): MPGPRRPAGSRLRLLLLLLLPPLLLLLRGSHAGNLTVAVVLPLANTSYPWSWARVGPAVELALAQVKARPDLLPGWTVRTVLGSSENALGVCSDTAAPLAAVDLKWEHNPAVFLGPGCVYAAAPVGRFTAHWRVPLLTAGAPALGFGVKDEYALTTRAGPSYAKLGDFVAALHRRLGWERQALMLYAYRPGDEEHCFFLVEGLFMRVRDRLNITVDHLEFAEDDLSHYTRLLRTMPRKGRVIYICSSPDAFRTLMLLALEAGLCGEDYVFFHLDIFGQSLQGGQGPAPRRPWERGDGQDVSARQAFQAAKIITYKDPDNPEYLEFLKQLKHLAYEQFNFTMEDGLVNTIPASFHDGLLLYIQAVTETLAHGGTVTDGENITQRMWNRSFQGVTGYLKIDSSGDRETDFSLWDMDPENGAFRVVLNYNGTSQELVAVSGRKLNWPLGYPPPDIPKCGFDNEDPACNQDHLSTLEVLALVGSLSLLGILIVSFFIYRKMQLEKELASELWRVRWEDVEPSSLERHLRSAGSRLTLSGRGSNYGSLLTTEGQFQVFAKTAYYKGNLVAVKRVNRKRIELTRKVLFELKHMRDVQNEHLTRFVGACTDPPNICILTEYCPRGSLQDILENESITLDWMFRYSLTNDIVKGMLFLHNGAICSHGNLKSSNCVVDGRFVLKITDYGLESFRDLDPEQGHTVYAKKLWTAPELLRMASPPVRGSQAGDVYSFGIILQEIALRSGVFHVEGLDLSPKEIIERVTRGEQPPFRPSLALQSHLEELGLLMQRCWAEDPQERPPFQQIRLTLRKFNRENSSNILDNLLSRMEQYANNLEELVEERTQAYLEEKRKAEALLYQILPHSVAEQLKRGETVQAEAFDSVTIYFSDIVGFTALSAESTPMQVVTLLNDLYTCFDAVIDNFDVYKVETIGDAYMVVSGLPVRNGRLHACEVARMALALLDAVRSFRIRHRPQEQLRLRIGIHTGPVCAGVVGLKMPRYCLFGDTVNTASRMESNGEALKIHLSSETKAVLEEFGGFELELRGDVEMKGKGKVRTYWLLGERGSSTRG
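HEK293 cells stably expressing human Npr1 and cGMP GloSensor pGS-40F, loaded 2 h with 2% GloSensor reagent, given compound 30 min at room temperature. Luminescence read before and 20 min after 0.1 nM hNppA.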
Starred values were filed as active, the others as inactive; ? = inconclusive; [ ] = dose if it differs, or a comment. % is scaled to controls: 0 for no effect and ±100 for the full control effect; potency is read from the fitted curve at half-maximal effect. Only part of the results is shown; count on the stated rates, not on these rows.

nr | compound | hNpr1 antagonist
1 | O=C1CC(C(=O)O)C2(CCN(C(=O)c3ccc4c(c3)OCO4)CC2)N1 (stereo unspecified) | 18.0%
2 | COc1cc(SC)ccc1C(=O)N[C@H]1C[C@@](O)(C(=O)N[C@@H](Cc2cccs2)C(N)=O)C[C@@H](O)[C@@H]1O | 1.0%
3 | CCN1CCC(c2nc3ccc(C)cc3c(=O)[nH]2)CC1 | -0.7%[70.6 µM]
4 | COc1cccc(C(=O)N2C(C(=O)NCC(C)C)COC23CCN(C(=O)c2ccc(F)cc2)CC3)c1 (stereo unspecified) | 4.0%
5 | CCOC(=O)CCNC(=O)N1CCCC1c1noc(COc2ccc(F)cc2)n1 (stereo unspecified) | 6.4%
6 | OC1(CN2CCC(Oc3cccnc3)CC2)CNCCOC1 (stereo unspecified) | 7.0%
7 | CN(Cc1ccc(N(C)C)cc1)Cc1cccn1C | -10.5%[70.6 µM]
8 | Cc1ncc(S(C)(=O)=O)c(NCc2nnc3ccccn23)n1 | 6.3%
9 | COc1ccc(CCC(=O)N2c3ccccc3CC2c2nc(C3CC3)no2)cc1 (stereo unspecified) | -15.9%
10 | Cn1nc(C2CCN(C(=O)Cc3ccc(F)cc3)CC2)[nH]c1=O | 24.6%[70.6 µM]
11 | O=C(Nc1ccc(Cl)cc1)c1nc2c(o1)CCN(Cc1ccncc1)CC2 | 1.26µM*
12 | COC1CCOC2(CCN(C(=O)c3cnccn3)CC2)C1 (stereo unspecified) | 1.5%
13 | CCC(C)NC(=O)CCN(CCCOC)C(=O)c1cc(C)oc1C (stereo unspecified) | -6.3%
14 | COc1ccccc1CN1CCC(N2CC3CCCN3C2=O)CC1 (stereo unspecified) | -16.5%[70.6 µM]
15 | O=C(NCCC1=CCCCC1)C1(CCO)CC12CCOCC2 (stereo unspecified) | -0.4%

4 of these compounds in another layout.
[4] COc1cccc(C(=O)N2C(C(=O)NCC(C)C)COC23CCN(C(=O)c2ccc(F)cc2)CC3)c1 (stereo unspecified)
  hNpr1 antagonist = 4.0%

[5] CCOC(=O)CCNC(=O)N1CCCC1c1noc(COc2ccc(F)cc2)n1 (stereo unspecified)
  hNpr1 antagonist = 6.4%

[6] OC1(CN2CCC(Oc3cccnc3)CC2)CNCCOC1 (stereo unspecified)
  hNpr1 antagonist = 7.0%

[7] CN(Cc1ccc(N(C)C)cc1)Cc1cccn1C
  hNpr1 antagonist = -10.5%[70.6 µM]

Continued:
nr | compound | hNpr1 antagonist
16 | COCC1CN(C(C)=O)CC12CCN(C(=O)NCc1cccc(OC)c1)CC2 (stereo unspecified) | -2.4%
17 | O=C(NCc1cccc(F)c1)c1nc2c(o1)CCN(CC1CCCC1)CC2 | -5.4%[70.6 µM]
18 | O=C(NC1CCCC1)C1CC(c2ccc(F)cc2)=NO1 (stereo unspecified) | 0.7%
19 | C=CCCCC(=O)Nc1ccc(NC(=O)C(C)(C)C)c(OC)c1 | -3.2%
20 | COc1ccc(NC(=O)c2cnc3c(c2)N(C(=O)Cc2ccccc2OC)CCC3)cn1 | -9.6%[70.6 µM]
21 | CNc1nccc(N2CCC(CC(=O)N3CCN(c4cccc(OC)c4)CC3)CC2)n1 | ?
22 | COC(=O)[C@@H]1Cc2ncn(Cc3ccc(OC)cc3)c2CN1S(=O)(=O)c1cccc2cccnc12 | 4.7%
23 | CN(C)[C@@H]1CN(C(=O)c2ccc(F)cc2F)C[C@H]1CO | 4.7%
24 | O=C(c1cc(F)cc(F)c1)N1CCC(Oc2ncccc2C(=O)N2CCCCC2)C1 (stereo unspecified) | 4.1%
25 | C[C@@H]1CN(C[C@@H]2CN(C(=O)c3ccc(Cl)o3)C[C@@H]2CO)C[C@H](C)O1 | 21.7%
26 | Cn1ccc2c(C(=O)NCCC(N)=O)nc(-c3ccccc3)cc21 | 1.6%[70.6 µM]
27 | O=C(C1COc2ccccc2C1)N1CCc2c(ncnc2N2CCOCC2)C1 (stereo unspecified) | -1.2%
28 | N#Cc1ccc(S(=O)(=O)N2C[C@@H](Oc3cccnc3)C[C@H]2C(N)=O)cc1 | -0.3%
29 | Cc1ccc(-n2c(C3CCN(C(=O)c4cc(F)ccc4F)CC3)n[nH]c2=O)cc1 | 2.9%
30 | COc1ccc2nc([C@H]3CCN(C(=O)c4ccccc4)C3)[nH]c2c1 | 4.0%[70.6 µM]
31 | COc1ccc(CN[C@@H]2CO[C@H](CNC(=O)CC(C)(C)C)[C@H]2O)cc1 | 7.4%[70.6 µM]
32 | COCCOCc1nc(C2CCCN2C(=O)c2ccccn2)no1 (stereo unspecified) | 2.6%
33 | CC1(c2ccccc2)CCCN(C(=O)c2cc(-c3ccncc3)n[nH]2)C1 (stereo unspecified) | -1.5%
34 | CCNC(=O)N1CCCCCCNC(=O)[C@@H]2C[C@@H](c3nc(-c4cccnc4)no3)C[C@@H]21 | -1.3%
35 | Cc1cnc(C(=O)N2CCCC(C(=O)NCc3ccccc3)CCNC(=O)CC2)cn1 (stereo unspecified) | -6.7%
36 | O=C(NCc1ccccc1)C1CCN(c2cc(C(F)(F)F)ncn2)CC1 | ?
37 | COC(=O)C1=C(C)N=C2SC=C(CC(=O)Nc3ccc(C)cc3)N2C1c1cccc(OC)c1 (stereo unspecified) | -17.2%
38 | O=C(c1cc2n(n1)CC(c1ccc(Cl)cc1)OC2)N1CCCCC1 (stereo unspecified) | -25.0%
39 | COc1ccccc1CCC(=O)N[C@@H]1CN(c2ccncn2)C[C@H]1CN(C)C | 13.2%
40 | CC(=O)N1CCC(C(=O)N[C@@H]2COCC[C@@H]2OCc2ccccc2)CC1 | 5.0%
41 | COc1ccc(C2Cn3nnc(C(=O)N4CCN(C(=O)c5ccccc5F)CC4)c3CO2)cc1 (stereo unspecified) | ?
42 | O=C1NC(C(=O)Nc2cccc(F)c2)Cn2cccc21 (stereo unspecified) | -11.9%
43 | CN1C[C@H](O)C[C@H]1c1nnc2n1CCN(C(=O)c1nccc3ccccc13)CC2 | 1.0%
44 | CC(C)c1nccc(-c2c(-c3ccccc3)ncn2CCCN2CCOCC2)n1 | 3.3%
45 | COc1ccc(CN2C[C@@H]3OCC(=O)N(c4ccccc4)[C@@H]3C2)cc1 | ?
46 | CC(=O)Nc1ccc(CN2CCN3C(=O)N(Cc4ccccc4)C[C@H]3C2)cc1 | 3.1%[70.6 µM]
47 | Cc1ccc(NC(=O)NCC2CCOCC2)c(Cl)c1 | 0.1%
48 | Cc1ccc(NC(=O)C2CC(=O)N(c3n[nH]c4ccccc34)C2)nc1 (stereo unspecified) | -0.9%
49 | O=C(NCc1ccc(F)cc1Cl)C1CCN(c2cnc3nccnc3c2)CC1 | 4.0%
50 | CCN1c2cc(C(=O)Nc3ccc(F)c(F)c3)ccc2C(=O)N2CCCCC21 (stereo unspecified) | 0.0%
51 | COCCc1noc([C@@H]2CN(Cc3ccc(C(C)C)cc3)C[C@H]2CO)n1 | -28.4%
52 | Cc1ccc(N2CCC(N)C2=O)cc1C (stereo unspecified) | -2.0%
53 | CCCCc1cc(C[C@@H]2C[C@H](NC(=O)C(C)(C)C)C2(C)C)no1 | -24.5%[70.6 µM]
54 | COC[C@H]1CCCN1Cc1cn(-c2ccccc2)nc1-c1ccc(OC)cc1F | 0.2%
55 | COCCN(C)C[C@@H]1CN(C(=O)c2cc(F)cc(C#N)c2)C[C@@H]1CO | -0.6%
56 | O=C(NCc1cccnc1)c1ccc2c(c1)n(Cc1ccccc1)c(=O)c1ccnn12 | 0.0%
57 | COCc1ncc(C)n1C1CCN(C(=O)Cc2cccc(F)c2)CC1 | 1.4%
58 | CCN1c2cc(C(=O)Nc3ccc(OC)c(OC)c3)ccc2C(=O)N2CCCCC21 (stereo unspecified) | -12.2%
59 | Cc1ccc(CN2C(=O)[C@@H]3C[C@@H](O)CN3C3(CN(Cc4ccncc4)C3)C2=O)o1 | -15.4%[70.6 µM]
60 | COc1ccccc1NC(=O)NC1CC(=O)N(Cc2cccc(F)c2)C1 (stereo unspecified) | -0.3%
61 | C=CCO[C@@H]1CCN2C(=O)c3cc(-c4cc(Cl)ccc4OC)ccc3NC(=O)[C@H]12 | -15.7%[70.6 µM]
62 | Cn1ccnc1C(=O)N1C[C@@H](Oc2ccccc2)C[C@H]1C(=O)NC1CC1 | -5.2%
63 | COc1cccc(-c2nnnn2[C@H]2CO[C@H]3[C@@H]2OC[C@@H]3NS(=O)(=O)c2ccccc2C#N)c1 | 1.9%
64 | CCN1CCN(C(=O)C2CCN(c3cnn(CCOC)c(=O)c3)C2)CC1 (stereo unspecified) | -0.7%
65 | O=C(CCC1CCCN(S(=O)(=O)c2ccccc2)C1)NCC1CC1 (stereo unspecified) | ?
66 | Cc1cnc(C(=O)NC2C[C@H]3CC[C@@H](C2)N3C(=O)C2CCCCCC2)cn1 (stereo partly specified) | 8.0%
67 | COc1ccc(C(=O)N[C@@H]2CCC[C@@H]2C(=O)N(C)Cc2ccccc2)cc1 | 5.2%
68 | COc1ccc(-c2cc(C[C@@H]3CC[C@H](O)[C@@H](CN(Cc4ccccc4OC)Cc4ccccc4OC)O3)no2)cc1 | 10µM*
69 | COc1ccc(CN2C[C@@H]3C(=O)N(CCN4CCc5ccccc5C4)C(=O)[C@@H]3C2)cc1 | -13.3%
70 | O=C(Nc1cccc(F)c1)C1(CCO)CC12CCOCC2 (stereo unspecified) | 0.7%
71 | CN1CC(=O)N(C2CCC2)Cc2c1ncnc2N1CCc2ccccc2C1 | -7.1%
72 | CC1(C(=O)NCc2cccnc2)COCc2cnc(Nc3ccccc3)nc21 (stereo unspecified) | -2.4%[70.6 µM]
73 | CN(Cc1ccccc1)Cc1cc(CC2(NCc3ccc(F)cc3)COC2)no1 | 3.1%[70.6 µM]
74 | COCC(=O)NC[C@H]1O[C@@H](CC(=O)N(C)Cc2ccccc2)[C@H](O)[C@@H]1O | -7.6%[70.6 µM]
75 | O=C(C1CCCC1)N1C[C@@H](CO)[C@H](c2ccncc2)C1 | -6.3%

Next section.
nr | compound | hNpr1 antagonist
76 | CC(C)C[C@@H]1N[C@H](C(=O)NC2CCC2)Cc2cn(Cc3nccn3C)c3cccc1c23 | -16.4%[70.6 µM]
77 | CCn1cc(-c2ccc(OC)cc2)cc1C(=O)N1CCCCCC1 | -7.0%
78 | COc1ccccc1-c1ccnc(-c2nnc(C)n2Cc2ccccc2)c1 | -1.0%[70.6 µM]
79 | Cc1nc(CN2C(=O)OC3(CCN(C(=O)CCc4ccccn4)CC3)C2(C)c2ccccc2)cs1 (stereo unspecified) | 4.4%
80 | O=C(CCC1CCN(c2cc(NC3CC3)ncn2)CC1)NCC1CC1 | -15.3%
81 | C[C@@]1(O)CCN(C(=O)c2ccc(-c3ccco3)cc2)C[C@@H]1O | 10.7%
82 | Cc1nc2cccnc2n1CC1CCCN(S(=O)(=O)c2ccccc2F)C1 (stereo unspecified) | -21.0%
83 | Cc1nn(CC(=O)NCc2ccc(F)cc2F)c(=O)c2nc(-c3ccccc3)sc12 | 6.6%
84 | CC(C)NC(=O)c1onc(-c2ccc(F)cc2)c1[C@H](C)O | 3.9%[70.6 µM]
85 | CCn1ncc(N2CCCC(CC(=O)N3CCN(c4cccc(Cl)c4)CC3)C2)cc1=O (stereo unspecified) | ?
86 | Cc1cccc(OCCc2noc(C3CN(C(=O)Cn4ccnc4)C3)n2)c1 | -15.1%
87 | CCOc1ccccc1C(=O)NC1CCN(c2cc(-c3ccc(OC)cc3)[nH]n2)CC1 | -18.9%
88 | CCC(=O)N1CCC2(CC1)NCCc1c2[nH]c2ccccc12 | -3.8%
89 | O=C(N[C@@H]1CN(C(=O)NC2CCCCC2)CCC[C@H]1O)c1ccc(OCCN2CCOCC2)cc1 | 0.2%
90 | CCOC(=O)c1ccc(NC(=O)Cn2c(-c3ccc(F)cc3)nc(C)c(CCO)c2=O)cc1 | ?
91 | CC1=NS(=O)(=O)N(C)C=C1C(=O)OCc1nc(-c2ccccc2)oc1C | 10µM*
92 | N[C@@H](Cc1cnc[nH]1)C(=O)N1CCC(c2cc(N3CCCC3)ncn2)CC1 | 11.0%
93 | O=C1[C@H]2CN(Cc3ccc(Cl)cc3)C[C@H]2C(=O)N1Cc1ccc2c(c1)OCO2 | -26.0%
94 | COc1ccc(-n2ccnc2CN2CCC(Cc3nncn3C)CC2)cc1 | 7.3%
95 | COc1ccc(-c2nc(C)nc3c2CCN(C(=O)c2ccc4c(c2)OCO4)CC3)cc1 | 0.0%
96 | O=C(NCc1ccc(Cl)cc1)C1CCCN(c2cnn(Cc3ccccc3)c(=O)c2)C1 (stereo unspecified) | -14.0%
97 | O=C(CC1CCN(C(=O)Nc2ccccc2F)C1)NCc1ccccc1 (stereo unspecified) | 0.0%
98 | Cc1ccc(-n2nc3n(c2=O)CCN(C(=O)c2ccc(C(F)(F)F)cc2)C3)cc1 | 5.9%
99 | CN(C)c1cccc(-c2cnc(Nc3cccnc3)c3c2CCO3)c1 | ?
100 | O=C(c1c(O)cccc1O)N1CCOC(C(F)(F)F)C1 (stereo unspecified) | 1.6%
101 | COCCNc1ncc(-c2cccc(OC)c2)c2c1OCC2 | -3.1%[70.6 µM]
102 | COc1ccc(CN2Cc3[nH]cnc3C[C@H]2C(=O)NCc2ccccc2)c2ccccc12 | ?
103 | CC(=O)N1CCCCC1c1nc(-c2ccccc2)n[nH]1 (stereo unspecified) | 5.8%
104 | CCC1(N2CCN(S(=O)(=O)c3ccc4c(c3)CCCC4)CC2)CCN(C(=O)C(C)C)C1 (stereo unspecified) | -23.5%
105 | COc1ccc(NC(=O)c2cc3sc(C)c(CN4CCCCC4)c3[nH]2)cc1OC | -4.5%
106 | O=C(c1ccc(-c2ccccc2CO)nc1)N1CCCN(c2ncccn2)CC1 | -1.0%
107 | CC(=O)N1CCCN(c2nc3ncccc3o2)CC1 | 11.3%[70.6 µM]
